Assay outcomes as filed in PubChem BioAssay.
CapD inh – Bacillus anthracis CapD inhibitors, primary screen, biochemical, fluorescence intensity. CapD gamma-glutamyltranspeptidase (Bacillus anthracis Ames Ancestor). purified CapD enzyme, fluorescence intensity read-out; stronger effect = lower value; some hits fall short of the stated cut. z-score (test concentration not listed). 0.23% of 140,000 active. AID 492967, 2010;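 active means z-score under -4 in either of two replicates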;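 further: stock transfer was 100 nL into about 40 µL; score is relative to mean and spread of the plate; one replicate is shown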
AID504770 – growth inhibition of E. coli YBA685, primary screen, V. cholerae RctB inhibitors. 0.27% of 130,000 active. AID 504770, 2011. z-score (test concentration not listed). E. coli YBA685 rctB-dependent plasmid, OD600 growth, 3 h; stronger effect = lower value;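 active means z-score under -2 on both plates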;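 further: wells of about 30 µL received 100 nL stock; score is relative to mean and SD of the test wells; the first replicate is given; strong numbers were not always called active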
* = called active by the depositor; i = inactive; nt = not tested or not shown; & = joins results of further samples. These rows are one share of the data; the hit share may differ from the screen's.

Screens in order – CapD inh, AID504770
1	Cn1cnc(S(=O)(=O)N(Cc2ccccc2)Cc2ccccc2N2CCC(C(=O)O)CC2)c1
    0.43, -0.4
2	Cc1ccccc1NC(=O)CCC1COc2ccccc2O1 (centres undefined)
    0.645, -0.4
3	C(=N\N1CCN(c2ccccn2)CC1)/c1ccco1
    nt, 1.4
4	CCOC(=O)C1CCN(C(=O)[C@H](Cc2ccccc2)N2Cc3ccccc3C2=O)CC1
    0.535, 0.15
5	Cn1cc(S(=O)(=O)c2ccccc2)c(=O)c2cc(F)ccc21
    -0.675, 0.6
6	O=C(NCCc1ccncc1)C(F)(F)F
    0.49, -0.6
7	COc1ccc2c(C)[nH]c(=O)cc2c1
    78.9, -0.55
8	O=C(COC(=O)CSc1nnc(-c2ccccc2F)n1-c1ccccc1)Nc1nnc(-c2ccccc2)o1
    nt, -0.25
9	CC(C)(C)c1ccc(C(=O)Nc2ccc(SCc3nc(OCC(F)(F)F)cc(OCC(F)(F)F)n3)cc2)cc1
    -0.76, nt
10	CCOc1ccc(S(=O)(=O)N2CCN(c3ccc([N+](=O)[O-])cc3)CC2)c2cccnc12
    0.67, nt
11	CSc1ncccc1C(=O)c1c(C)[nH]n(-c2ccccc2)c1=O
    -0.085, nt
12	O=C(COc1ccc(Cl)cc1)N1CCCCC1
    nt, -0.9
13	CS(=O)(=O)c1ccc(CC(=O)N2CCN(C(c3ccccc3)c3ccccc3)CC2)cc1
    -0.44, nt
14	CCN(C(=O)CSC1=NCCS1)C1CCCCC1
    0.555, 0
15	CC(C)(C)C(=O)Nc1cccc(-c2nc3ccccc3[nH]2)c1
    10.8, 1.6
16	CC1(C)Cc2ccccc2/C(=C\C(=O)N2CCN(C(=O)/C=C3/NC(C)(C)Cc4ccccc43)CC2)N1
    -0.165, nt
17	Clc1ccc2c(c1)c(-c1ccccc1)nc1nncn12
    -0.585, -0.75
18	CCC(C)(CC(=O)O)CC(=O)Nc1cc(C(F)(F)F)cc(C(F)(F)F)c1 (centres undefined)
    -1.18, -0.5
19	O=C(c1ccccc1)N1CCN(C(=O)C2CC3C=CC2C3)CC1 (centres undefined)
    nt, 1.3
20	COc1ccc(CSc2nnc(SCc3ccc(C(=O)O)cc3)s2)cc1
    -0.445, 2.2
21	O=C(CCOc1ccccc1)NCC(c1ccco1)N1CCCCC1 (centres undefined)
    nt, 0.1
22	CCCNS(=O)(=O)c1nc2nc(C)cc(C)n2n1
    0.29, -0.6
23	NC(=O)NC(=O)CC1S/C(=N/N=C2\CSC(=O)N2)NC1=O (centres undefined)
    nt, 0.5
24	Cc1oc(C(=O)O)cc1CSc1ccccc1C(=O)O
    -0.575, 2.25
25	Cc1c(C(=O)NCC2CCCO2)sc2nc(-c3ccc(F)cc3)cn12 (centres undefined)
    -0.415, -0.75
26	O=C(NCc1cccnc1)C1c2ccccc2C(=O)N1Cc1ccccc1 (centres undefined)
    -0.6, -0.4
27	Cc1nnc(SCC(=O)c2c[nH]c3ccccc23)n(N)c1=O
    nt, -0.55
28	O=[N+]([O-])c1cc(/C=N/Nc2nc3ccccc3nc2C(F)(F)F)ccc1Cl
    0.275, nt
29	CCOC(=O)c1sc(NC(=O)CSC2=NCCS2)nc1C
    -0.135, nt
30	CCOc1ccccc1NC(=O)NCc1ccccc1
    -0.81, -0.6
31	O=C(NCCNc1nccc(C(F)(F)F)n1)C1CC1
    3.51, 0.25
32	CC(C)C(=O)Nc1c2c(nn1-c1ccccc1)CSC2
    0.225, 0
33	CCN(CC)c1ncnc2nc[nH]c12
    0.19, 0.1
34	CC(=O)N1CCc2cc(S(=O)(=O)NC(CC(C)C)C(=O)N3CCN(c4ccc(F)cc4)CC3)ccc21 (centres undefined)
    0.11, -0.75
35	COc1ccc(N=C2SCC(=O)N2Cc2ccccc2)cc1
    nt, -0.1
36	CCOC(=O)C(CC)Sc1nnc(-c2c[nH]c3ccccc23)n1CCOC (centres undefined)
    nt, -0.85
37	COc1cc(C)ccc1OCC(=O)NN1C(C)CCCC1C (centres undefined)
    nt, 1.2
38	O=S(=O)(Nc1ncccc1OCc1cc(F)cc(F)c1)c1cccc(Cl)c1
    2.36, 1.2
39	COC(=O)C1C(c2ccc(OC)cc2)c2c([nH][nH]c2=O)CC1(C)O (centres undefined)
    -0.81, -0.35
40	CC(C)n1cc(-c2nc(C(C)(C)C)cs2)c(=O)n(Cc2ccccc2)c1=O
    2.55, -0.45
41	Nc1nc(SCC(=O)c2ccc(Cl)cc2)n[nH]1
    -0.34&-0.115, -2.65*
42	CC1CCCN(Cc2nc3c(c(=O)n(C)c(=O)n3C)n2CCc2ccccc2)C1 (centres undefined)
    2.56, 0
43	COC(=O)c1ccccc1NC(=O)CNc1cc(OC)c(OC)cc1C
    nt, 1.85
44	CN(C(=O)CSc1nnc(Nc2ccccc2)s1)C1CCS(=O)(=O)C1 (centres undefined)
    nt, 1.25
45	CC(=O)Nc1ccc(NC=C(C#N)C#N)cc1
    nt, -0.6
46	O=C(Nc1ccc(F)cc1F)c1ccc(-c2nc(-c3ccccc3)cs2)cc1
    0.99, nt
47	N#Cc1ccccc1SCc1ccccc1
    -1.13, -0.2
48	CCOC(=O)Cc1csc(/C(=N/O)C(N)=O)n1
    -0.665, -0.4
49	Cc1ccc(-c2nc3sccn3c2/C=N/OCc2c(F)cccc2Cl)cc1
    1.04, nt
50	O=[N+]([O-])c1cc(C(F)(F)F)cc([N+](=O)[O-])c1Oc1ccc(Cl)cc1Cl
    -0.16, nt
51	CC(C)CCN1C(=O)C2(NN(CCO)C(=Nc3ccccc3)S2)c2ccccc21 (centres undefined)
    nt, 1.85
52	COc1ccc(CN(C)CC(=O)NC(=O)Nc2ccc(C)cc2C)cc1
    nt, 0.05
53	O=C(Nc1ccc(F)cc1)c1ccc([N+](=O)[O-])o1
    -1.52, nt
54	COc1ccccc1N1CCN(C(=O)Oc2ccccc2)CC1
    0.7, 0.3
55	N#C/C(=C/c1ccccc1)c1cccc(C#N)c1
    2.88, -0.5
56	O=C(c1ccsc1)N1CCN(C(c2ccccc2)c2ccc(Cl)cc2)CC1 (centres undefined)
    -0.11, nt
57	OCC(c1ccccc1)C1CCCCC1 (centres undefined)
    -0.55, -0.55
58	Cc1ccc(-c2cc(NC(=O)COC(=O)C3=NNC(=O)CC3)n(-c3ccccc3)n2)cc1
    nt, -0.55
59	Cc1ccc(CNC(=O)Cn2ncc3c2-c2ccccc2OC3)cc1
    -0.49, -0.15
60	CCOc1cccc2c1N(C(=O)c1ccc([N+](=O)[O-])cc1)C(C)(C)C1=C2C2(SC(C(=O)OC)=C(C(=O)OC)S2)C(C(=O)OC)=C(C(=O)OC)S1
    -0.19, nt

Arranged by SMILES length (rising): some entries from above
Screens in order – CapD inh, AID504770
47	N#Cc1ccccc1SCc1ccccc1
    -1.13, -0.2
55	N#C/C(=C/c1ccccc1)c1cccc(C#N)c1
    2.88, -0.5
48	CCOC(=O)Cc1csc(/C(=N/O)C(N)=O)n1
    -0.665, -0.4
53	O=C(Nc1ccc(F)cc1)c1ccc([N+](=O)[O-])o1
    -1.52, nt
46	O=C(Nc1ccc(F)cc1F)c1ccc(-c2nc(-c3ccccc3)cs2)cc1
    0.99, nt
58	Cc1ccc(-c2cc(NC(=O)COC(=O)C3=NNC(=O)CC3)n(-c3ccccc3)n2)cc1
    nt, -0.55
60	CCOc1cccc2c1N(C(=O)c1ccc([N+](=O)[O-])cc1)C(C)(C)C1=C2C2(SC(C(=O)OC)=C(C(=O)OC)S2)C(C(=O)OC)=C(C(=O)OC)S1
    -0.19, nt

Further compounds
Screens in order – CapD inh, AID504770
61	CN1C(=O)Cc2cc(S(=O)(=O)CCC(=O)N3CCn4c3nc3ccccc34)ccc21
    0.225, -0.35
62	NNC(=O)Cc1csc(-c2cccc(-n3cccc3)c2)n1
    9.77, -0.2
63	Cc1ccnc(N2CCC(C(=O)NCc3ccc(F)cc3)CC2)n1
    nt, -0.6
64	Cc1ccccc1CSCC(=O)Nc1sccc1C#N
    nt, 2.55
65	CCOC(=O)N1CCN(Cc2nnc(-c3ccc4c(c3)OCO4)o2)CC1
    0.075, 0.1
66	O=C1/C(=C/c2cccs2)CS/C1=C/c1cccs1
    -0.125, 0.4
67	COc1ccc(Br)c(OC)c1C(N)=O
    0.215, nt
68	CCn1c(CSc2ccc3c(c2)OCCCO3)nc2cc(S(=O)(=O)N(C)C)ccc21
    nt, -0.7
69	CC1=NN(c2cccc(C(=O)O)c2)C(=O)/C1=C\c1ccc(-c2cc([N+](=O)[O-])ccc2C)o1
    -0.495, nt
70	CCc1nc(C)ccc1OCC(=O)N(CC)CC
    4.54, 1.05
71	S=C(NCCc1ccc(Cl)cc1)Nc1ccccc1
    -0.15, 0.5
72	CCn1ncc(-c2ccnc3cc(C(=O)O)nn23)c1C
    nt, 2.15
73	CCOc1ccc(N2C(=O)C(=O)/C(=C(/O)c3ccccc3)C2(O)C(=O)OC)cc1 (centres undefined)
    -1.18, nt
74	CCN(CC)c1nc(C)nc2ccccc12
    -0.495, -1.05
75	Cc1ccc(CNc2ccc(O)cc2)s1
    nt, -0.85
76	COc1ccc(NC(=O)c2ccc(C(C)(C)C)s2)cc1
    0.49, -0.1
77	COC(=O)c1cc(-c2ccccc2)nc2ccc(C)cc12
    -0.44, 0.05
78	O=c1cc(C(F)(F)F)[nH]c2c(Br)cccc12
    0.275, -0.45
79	CCCCCCN1C(=O)C(=O)/C(=C(\O)c2ccccc2)C1c1ccc(C)cc1 (centres undefined)
    -0.04, nt
80	CC(C)(C)C(=O)c1sc(NCc2ccco2)c(C(N)=O)c1N
    nt, 0.25
81	O=C(N/N=C/C=C/c1ccccc1)c1ccc2nonc2c1
    -0.15, nt
82	O=S(=O)(N/N=C/c1ccc2c(c1)OCO2)c1ccc(Cl)cc1
    0.04, -0.65
83	O=C(C(c1ccccc1)n1cccc1)N1CCN(C/C=C/c2ccccc2)CC1 (centres undefined)
    -0.855, nt
84	Nc1[nH]nc2nc(-c3ccccc3)[nH]c(=O)c12
    -0.53, nt
85	CCOC(=O)c1cc(C)n(-c2cccc(Cl)c2Cl)c1-c1ccccc1
    0.735, nt
86	O=c1oc2ccccc2c(O)c1C=Nc1cccnc1
    i, 1.05
87	COC(=O)c1cccc(N2C(=O)C3C4c5ccccc5C(c5ccccc54)C3C2=O)c1 (centres undefined)
    0.61, nt
88	O=C(c1ccc(S(=O)(=O)Nc2ccccc2Cl)cc1)N1CCCC1
    -0.055, -0.15
89	COc1cc(OC)c(CN2CCC(NC(=O)OCc3ccc(/C=C/c4ccccc4)cc3)C2)c(OC)c1 (centres undefined)
    17.1, nt
90	O=C(CSc1nnc(-c2ccco2)n1-c1ccccc1)NC(=O)c1ccccc1
    nt, -0.1
91	CCCCNC(=O)NS(=O)(=O)c1cc(Cl)sc1Cl
    -0.495, nt
92	CC(=O)N1c2ccccc2-c2ccccc2S1(=O)=O
    20.1, nt
93	COc1ccc2nc(NC(=O)c3ccccc3NS(=O)(=O)c3cccs3)sc2c1
    nt, 0.45
94	CCOc1ccccc1CN1CCC(N(C)S(=O)(=O)c2ccc(C(C)=O)cc2)C1 (centres undefined)
    0, nt
95	CCC(=O)n1c(=O)oc2ccc(Cl)cc21
    nt, -0.4
96	COC(=O)C1SCCN1C(=O)c1ccc(Cl)cc1 (centres undefined)
    0.085, nt
97	O=C1Nc2ccccc2C1=Nc1cccc(C(F)(F)F)c1
    -0.67, -1.05
98	CC1C(=O)N(Cc2cccc(Cl)c2)c2ccccc2N1C(=O)c1ccccc1 (centres undefined)
    -0.215, nt
99	CN1CCC(N(C)CC(O)COCc2ccccc2Cl)CC1 (centres undefined)
    nt, -1.35
100	O=S(=O)(c1ccc(F)cc1)N1CCCN(c2c(Cl)cncc2Cl)CC1
    0.91, 0.8
101	COCCN1C(=O)/C(=C/c2cc(OC)c(O)cc2Br)SC1=S
    -1.27, -0.35
102	O=C1c2ccccc2-c2nnc(-c3cccc(OC(F)(F)F)c3)cc21
    0.465, 0.2
103	Cc1ccc(N2C(=O)C3C4C=CC(CO)(O4)C3C2=O)cc1Br (centres undefined)
    -0.19, nt
104	CC1(C)CC(c2ccccc2)(C(CO)CNCc2ccccc2)CCO1 (centres undefined)
    0.185, -0.45
105	CCN(CC)CCN1C(=O)C(O)=C(C(=O)c2sc(C)nc2C)C1c1ccccn1 (centres undefined)
    -1.98, 2.05
106	Cc1cc(C)nc(SCc2cc(=O)c(OC(=O)c3c(-c4ccccc4Cl)noc3C)co2)n1
    nt, 0.6
107	O=C(CSc1ncc(CO)n1Cc1ccc(Cl)cc1)NC1CCCCC1
    0.02, -0.1
108	Cc1nnc(NC(=O)C2CCCN(c3ncccn3)C2)s1 (centres undefined)
    nt, 0.5
109	O=C(NCn1nc(-c2ccccc2)nc1-c1ccccc1)c1cccnc1
    nt, -0.3
110	CCC(=O)Nc1ccc2nc(SCc3ccc(F)c4ccccc34)sc2c1
    36.8, 0.2
111	CC(C(=O)O)c1cccc(Oc2ccccc2)c1 (centres undefined)
    -1.62&0.71, 0.45
112	Cn1ccnc1SCC(=O)N1CCc2c([nH]c3ccccc23)C1C(F)(F)F (centres undefined)
    -0.5, -0.7
113	O=C(NCc1ccc2c(c1)OCO2)NC1CCCCC1
    0.415, nt
114	O=C(COC(=O)c1ccccc1)c1ccc(-c2ccccc2)cc1
    0.395, 1.65
115	CCC(C)NC(=O)C1CCC(=O)N(c2cc(OC)c(OC)c(OC)c2)C1c1ccc(OC)cc1 (centres undefined)
    -0.62, -0.9
116	CS(=O)(=O)c1cccc(S(=O)(=O)c2cccc(S(C)(=O)=O)c2)c1
    nt, -1.05
117	N#Cc1ccc(COn2nnc3ccccc32)cc1
    -0.505, -0.05
118	CC1CC(=O)Nc2ccccc2N1C(=O)c1cc(Cl)sc1Cl (centres undefined)
    -0.87, 0.95
119	Nc1c(C(=O)NC2CCCC2)nnn1-c1ccccc1
    nt, -0.8
120	COc1ccc(CSc2nc(-c3ccccc3)c(-c3ccccc3)n2C)cc1
    1.29, nt
121	CCOc1ccc(N=C2SC(C(=O)Nc3ccc(C(=O)O)cc3)CC(=O)N2C)cc1 (centres undefined)
    0.44, nt
